High-throughput results (PubChem)
GLA inh pH 4.5 = inhibitors of human alpha-galactosidase A at pH 4.5 | purified enzyme, 4-MU-alpha-Gal fluorescence, pH 4.5 | activity change, negative = inhibition, % at 105 µM | 230,000 tested, under 10 active | AID 1467; inconclusive = small, poorly fitted or top-dose-only inhibition, or a rising curve; inactive = flat fitted curve, though single readings scatter; no compound was filed as active;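 note: 0% = full activity with enzyme and -100% = basal without enzyme; dose as in the result columns while the protocol names 77 µM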
Target sequence (P06280 whole entry, looked up): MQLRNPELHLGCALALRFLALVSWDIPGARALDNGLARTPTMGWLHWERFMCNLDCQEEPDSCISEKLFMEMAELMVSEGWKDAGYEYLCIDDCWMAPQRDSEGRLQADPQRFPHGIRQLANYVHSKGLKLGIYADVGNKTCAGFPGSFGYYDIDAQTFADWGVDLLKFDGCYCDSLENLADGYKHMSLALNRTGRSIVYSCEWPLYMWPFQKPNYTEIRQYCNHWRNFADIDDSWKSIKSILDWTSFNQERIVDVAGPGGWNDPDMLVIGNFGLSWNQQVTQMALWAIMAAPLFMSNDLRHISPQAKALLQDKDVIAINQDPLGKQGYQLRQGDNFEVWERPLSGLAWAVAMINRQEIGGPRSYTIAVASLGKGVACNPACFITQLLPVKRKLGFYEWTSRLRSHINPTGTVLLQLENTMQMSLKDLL
Rango-impB inh = prevents formation of the Rango-importin beta complex; Rango CFP/YFP FRET sensor + importin beta, 45 min; Potency, µM (titrated, usually from 92.2 µM), inactives show at the highest dose inhibition of complex formation; 340,000 tested, 0.031% active; active = rising FRET ratio curve, often small or poorly fitted; inconclusive = mostly compound fluorescence or quenching in the first reads; inactive = flat curves in all reads;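 note: potency is the fitted concentration of half-maximal effect; 0% = DMSO wells and 100% = buffer wells lacking importin beta; nearly all actives have a fitted effect of over 15% in size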
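FRET biosensor (snurportin 1 IBB flanked by EYFP and cerulean), 50 nM, with compound 5 min, then 0.125 microM importin beta in PBS, 1 mM DTT, 0.02% Tween-20, 0.1% BSA. CFP/YFP ratio read after 45 min at room temperature; pre-read flags interference.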
Rango release inh = inhibition of RanGTP-driven Rango-importin beta dissociation. O95149+P62826. Biochemical FRET Rango-importin beta, RanGTP-induced dissociation. Potency, µM (highest dose often 46.1 µM), for inactives: at the top dose activity change, negative = inhibition. 340,000 tested, 0.071% active; active means falling FRET ratio curve, often poorly fitted, with flat reads before Ran was added; inconclusive means other falling curves, or compound fluorescence or quenching; inactive means flat or rising ratio curve;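 note: potency is the fitted concentration of half-maximal effect; % of control where 0% means no effect; nearly all actives have a fitted effect of over 45% in size; -100% = wells without RanGTP and RCC1; the record marks most hits as doubtful in a second field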
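Rango (0.1 uM)–importin beta (0.25 uM) complex; RanGTP-RCC1 trigger; 45 min RT; CFP/YFP FRET read.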
miR-21 FLuc = raises the signal of a miR-21 reporter; 340,000 tested, under 10 active; Potency, µM (highest dose often 38.3 µM), for inactives: at the highest dose reporter change, positive = more light; HeLa miR-21 FLuc reporter, luciferase, 48 h; active = well fitted rising curve with a large enough effect; inconclusive = small, poorly fitted or top-dose-only effect; inactive = no such curve, though single readings can be large or run the other way;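 note: % of control where 0% means no effect; miR-21 action dims this reporter so a rising signal means less miR-21 action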
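Using DMEM plus 10% FBS, HeLa miR-21-FLuc cells are incubated with test compounds (final up to about 40uM) for 48 hours; firefly luciferase signal is then imaged following reagent-mediated lysis.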
* marks the source's active call; other numbers are inactive results; ? = inconclusive; nt = no result given; [ ] = remark or other dose. Not all compounds are listed. The share of hits here may be higher or lower than overall.

Start of the data: the first 3 compounds (preview)
SMILES	GLA inh pH 4.5	Rango-impB inh	Rango release inh	miR-21 FLuc
c1ccc(CCn2nnnc2CN2CCc3ccccc32)cc1	2	-4.8%	-20%	-13%
CCOc1ccccc1N(C(=O)c1ccco1)C(C(=O)NC1CCCC1)c1cccnc1 (stereo not drawn)	-27	3.7%	4%	-5%
CCC(=O)OC1(C(C)=O)CCC2C3CCC4=CC(=O)CCC4(C)C3CCC21C (stereo not drawn)	nt	-1.0%	-1%	nt

Main list (from the top)
SMILES	GLA inh pH 4.5	Rango-impB inh	Rango release inh	miR-21 FLuc
c1ccc(CCn2nnnc2CN2CCc3ccccc32)cc1	2	-4.8%	-20%	-13%
CCOc1ccccc1N(C(=O)c1ccco1)C(C(=O)NC1CCCC1)c1cccnc1 (stereo not drawn)	-27	3.7%	4%	-5%
CCC(=O)OC1(C(C)=O)CCC2C3CCC4=CC(=O)CCC4(C)C3CCC21C (stereo not drawn)	nt	-1.0%	-1%	nt
O=C(CNS(=O)(=O)c1ccccc1)Nc1ccc2c(c1)OCO2	2	6.4%	1%	-23%
C/C(=N\N1CCN(Cc2ccc(Cl)cc2)CC1)c1ccc([N+](=O)[O-])cc1	-2	-1.7%	-11%	7%
C=CCc1cccc(CNc2c(C)cc(C)cc2C)c1O	-1	?	17%	-1%
CCOc1cc2[nH]c(=O)n(CCC(=O)N3CCN(c4ccccc4OC)CC3)c(=O)c2cc1OCC	6	-1.4%	13%	-4%
CCN(CCCNC(=O)CN(C)S(=O)(=O)c1ccc2c(c1)CCC(=O)N2)c1cccc(C)c1	-17	5.6%	-6%	0%
O=C1c2ccccc2C(=O)c2[nH]cnc21	-4	1.7%	16%	3%
CCN(CC)S(=O)(=O)c1cccc(C(=O)N[C@H](C(=O)NCc2ccc(Cl)cc2)C(C)C)c1	-10	-1.2%	-26%	12%
COC(=O)c1ccc(-n2c(C)cc(C(=O)COC(=O)CC3Sc4ccccc4NC3=O)c2C)cc1 (stereo not drawn)	-5	-4.4%	-4%	-13%
CNC(=S)N/N=C/c1cc(Br)cc(Br)c1O	5	?	?	16%
CCc1[nH]c(=O)c(C#N)c2c1COC(C)(C)C2	4	-6.5%	0%	-8%
COc1cccc(OCC(=O)NC2CCCCC2)c1	0	-0.3%	5%	-20%
NC(=O)c1ccc(NC(=O)COc2coc(CN3CCc4ccccc4C3)cc2=O)cc1	nt	-1.0%	-4%	nt
Cn1cc(S(=O)(=O)N2CCN(c3ccc(F)cc3)CC2)c(=O)n(C)c1=O	5	2.1%	-21%	-3%
Cc1ccccc1CN(C)CCS(=O)(=O)c1cc(Cl)ccc1Cl	nt	-1.1%	9%	30%
COc1ccc(S(=O)(=O)N(n2c(C)nnc2-n2nc(C)cc2C)S(=O)(=O)c2ccc(OC)cc2)cc1	4	-4.7%	-4%	-28%
Cc1cc(C(=O)CN2C(=O)NC3(CCCc4ccccc43)C2=O)c(C)n1C (stereo not drawn)	-5	1.8%	0%	-7%
Fc1cccc(Cc2noc(CN3CCSCC3)n2)c1	8	-0.7%	-26%	7%
N#CCc1ccnc2ccccc12	nt	-1.6%	2%	nt
CCCCN(Cc1cc2cc(OC)ccc2[nH]c1=O)C(=O)c1ccccn1	4	1.6%	6%	-5%
CCC(C)[C@H](NS(=O)(=O)c1ccc(F)cc1Br)C(=O)OC (stereo partly drawn)	nt	7.3%	-2%	nt
CCN(CC(=O)NCc1cccs1)c1ccc(S(=O)(=O)N2CCOCC2)cn1	-4	-4.8%	-7%	-4%
O=[N+]([O-])c1cccc(CN2CCN(S(=O)(=O)Cc3ccccc3)CC2)c1	nt	-1.1%	-7%	7%
Continued:
SMILES	GLA inh pH 4.5	Rango-impB inh	Rango release inh	miR-21 FLuc
O=c1cc2oc3cc(O)c(O)cc3c(-c3ccccc3[N+](=O)[O-])c-2cc1O	nt	?	-4%	?
CC(C)c1ccc(C=NNc2ccc([N+](=O)[O-])cn2)cc1	nt	?	?	nt
CCNC(=S)NC(=NCc1cccnc1)Nc1nc(C)cc(C)n1	nt	-0.2%	-10%	-12%
Cc1cccc(-n2ncc3c2CCCC3NC(=O)CCc2ccncc2)c1C (stereo not drawn)	nt	0.0%	0%	17%
CCCC(=O)C1=C(O)C(C(=O)OC)C(C)(C)CC1=NCc1ccccc1 (stereo not drawn)	nt	-1.1%	0%	2%
Cc1ccc(CNCCCn2cnc3c(OCc4ccccc4)ncnc32)o1	nt	2.9%	-3%	nt
O=[N+]([O-])c1ccc(-n2nnnc2CN2CCCCC2)cc1	-1	1.8%	1%	10%
COCCNC(=O)C1CCN(C(=O)c2cc3sccc3n2Cc2ccc(F)cc2)CC1	-15	1.6%	-16%	30%
Cn1cnc([N+](=O)[O-])c1S(=O)(=O)Oc1cccc2ccccc12	nt	1.3%	0%	nt
COc1cccc(Oc2c(C)oc3c(CN4CCCCC4)c(O)ccc3c2=O)c1	19	-4.4%	12%	-7%
CC1CCc2sc(C(=O)NC3CCN(Cc4ccccc4)CC3)cc2C1 (stereo not drawn)	nt	-0.4%	-4%	nt
COCCNC(=O)c1cn(C)c2ccc(S(=O)(=O)N3CCCC3)cc2c1=O	nt	2.4%	-13%	3%
O=C(Cc1ncc(C(F)(F)F)cc1Cl)NCCc1ccccn1	12	7.8%	0%	0%
COc1ccc(C(=O)NCCCCNC(=O)c2ccc(OC)c(OC)c2)cc1OC	nt	4.1%	6%	0%
COc1ccc(C(=O)N=C2SC3CS(=O)(=O)CC3N2Cc2ccc(F)cc2)cc1 (stereo not drawn)	nt	-0.1%	5%	3%
COc1ccc(-c2nc(CS(=O)(=O)CC(=O)NCc3ccc4c(c3)OCO4)c(C)o2)cc1	nt	-2.6%	?	0%
CCCOc1ccccc1/C=C(\C#N)C(=O)Nc1cccc(C)n1	nt	2.0%	12%	-28%
COc1ccc(O)c(CN2CCN(CCc3ccccc3)C(CCO)C2)c1 (stereo not drawn)	0	0.0%	11%	1%
CCOC(=O)c1ccc(S(=O)(=O)NCC(c2ccc(N(C)C)cc2)c2c[nH]c3ccccc23)cc1 (stereo not drawn)	0	-0.7%	-13%	-6%
COc1cc(/C=C/C(=O)OCC(=O)NCCc2ccccc2)cc(OC)c1OC	-1	-2.3%	-6%	9%
Cc1nn(CCC(=O)O)c2nc(-c3cccnc3)cc(C(F)(F)F)c12	5	-0.2%	17%	-12%
CC(=O)Nc1ccc(N/C=C/C(=O)c2ccc(Cl)cc2)cc1	nt	?	-17%	-10%
CC(=O)Nc1ccc(S(=O)(=O)n2cnc3ccccc32)cc1	2	-1.0%	2%	-5%
Cc1ccc(C)c(OCCC(=O)OCC(=O)NCc2ccccc2)c1	nt	-4.0%	4%	nt
CCCCNC(=O)c1ccc2c(c1)N(C)C(=O)c1ccccc1S2	nt	0.3%	2%	-5%
Going on with the list.
SMILES	GLA inh pH 4.5	Rango-impB inh	Rango release inh	miR-21 FLuc
CCOc1ccccc1N1CC(O)=C(c2nc3ccccc3s2)C1=N	-2	0.4%	-13%	14%
O=C(NCCCc1ccc(F)cc1)C1CCC(=O)N(CCCN2CCCC2=O)C1 (stereo not drawn)	nt	0.2%	-10%	3%
Cc1cc(C)n(Cc2ccc(Cl)nc2)n1	2	-1.2%	-4%	3%
O=c1[nH]sc2ccccc12	5	-1.7%	5%	?
CN1C(=O)/C(=N/OC(=O)c2ccccc2)c2ccccc21	-1	-1.5%	-6%	-8%
CCn1c(SCC(=O)Nc2sc3c(c2C#N)CCCC3)nnc1-c1ccncc1	0	-0.5%	2%	0%
CCn1c(SCC(=O)NCc2ccccc2)nnc1C(CO)NC(=O)c1ccccc1 (stereo not drawn)	nt	0.0%	-4%	-2%
Cc1cccc(C)c1-n1nnnc1SCC(=O)N1CCNC1=O	nt	-0.6%	-5%	nt
CCCCCCNC(=O)C(=O)NCCc1ccc(Cl)cc1	1	0.2%	1%	5%
COC(=O)c1ccc(C)c(N(CCO)CCO)c1	-4	0.1%	20%	-4%
COc1ccc(S(=O)(=O)NNC(=O)c2csc(-n3nc(C)cc3C(F)(F)F)n2)cc1OC	4	2.0%	-8%	-2%
CC1=CC(C)C(/C=N/n2cnnc2)C(C)C1 (stereo not drawn)	nt	-4.7%	0%	-6%
O=C(CNC(=S)N(Cc1ccccc1)Cc1cccnc1)NCCN1CCOCC1	4	6.6%	-16%	-1%
CCOc1ccc(NC(=S)Nc2cccnc2)cc1	6	0.0%	-4%	-11%
NC(=O)c1ccc(NC(=O)COc2ccc(-n3cnnn3)cc2)cc1	nt	-4.2%	-24%	nt
COc1ccc2[nH]cc(C(=O)CN3CCN(C4CCCCC4)CC3)c2c1	-8	0.3%	-7%	-1%
Clc1ccc(OCc2nnc3n2CCCCC3)c(Cl)c1	-14	?	4%	-39%
O=C(O)c1cccc(S(=O)(=O)Nc2cccc(S(=O)(=O)N3CCCC3)c2)c1	nt	5.9%	-21%	nt
COC(=O)c1sccc1NC(=S)N1CCN(C)CC1	3[21.1 µM]	0.6%	16%	-1%
Cc1c(NC(=O)CSc2nnc(C(C)N(C)C)n2-c2ccccc2)c(=O)n(-c2ccccc2)n1C (stereo not drawn)	nt	2.6%	-5%	nt
Cc1nc(NNC(=O)c2ccccc2)cc(-c2ccccc2)n1	-2	-1.8%	-8%	-3%
CC(=O)NCC(=O)OCC(=O)c1ccccc1	6	-1.2%	1%	-4%
O=C(CCCOc1ccccc1)N1CCN(c2ccccc2)CC1	0	-1.5%	18%	-56%
CCN(CC(=O)NCc1ccc(F)cc1)c1ccc(S(C)(=O)=O)cc1[N+](=O)[O-]	-4	1.0%	0%	1%
O=C(CSc1cccs1)Nc1ccc2ccccc2c1	-6	0.8%	21%	-49%
Next records:
SMILES	GLA inh pH 4.5	Rango-impB inh	Rango release inh	miR-21 FLuc
O=C(Nc1cc(N2CCOCC2)ncn1)NC1(C(F)(F)F)Oc2ccc(Cl)cc2O1 (stereo not drawn)	2	nt	nt	-20%
Cc1cc(C)cc(NC(=O)/C(C#N)=C/c2cn(CC(=O)NCc3ccco3)c3ccccc23)c1	2	?	?	-6%
Cc1ccc2c(c1)c(C)c(C)n2CC(O)Cn1nc(C)cc1C (stereo not drawn)	9	-4.7%	-2%	-7%
N#CC1(NC(=O)COC(=O)CSc2ccc(F)cc2)CCCCC1	nt	9.1%	18%	nt
C/C(=N\Nc1nc(C)cc(-c2ccccc2)n1)c1ccccc1	nt	-3.7%	4%	2%
O=C(CN1CCN(S(=O)(=O)c2ccc(Br)s2)CC1)NC1CCCCC1	nt	-0.9%	2%	nt
COc1ccc(S(=O)(=O)Nc2ccc(O)c3ccccc23)cc1	-6	-0.3%	7%	17%
O=C(CSc1nnc(Cc2ccccc2)n1Cc1ccccc1)NCc1ccco1	-9	-2.4%	0%	2%
O=C(Nc1cccnc1)c1ccc(COCC(F)(F)F)cc1	-1	-3.6%	-13%	-29%
Cc1cc(C)c(C)c(OCC(=O)N2CCN(c3ccccn3)CC2)c1	nt	-3.4%	35%	0%
CCCN1C2CCCC1CC(NC(=O)c1cccc(Cl)c1)C2 (stereo not drawn)	nt	2.3%	1%	0%
CCOC(=O)N1CCC(NC(=O)CN(c2ccc(C(C)C)cc2)S(=O)(=O)c2c(C)nn(C)c2C)CC1	nt	3.0%	4%	-4%
Cc1ccc(C)c(S(=O)(=O)NCc2ccc(C(=O)N3CCN(C)CC3)cc2)c1	-2	3.0%	-2%	-2%
CCOc1ccc(OCC(=O)Nc2ccc(OC)cc2[N+](=O)[O-])cc1	0	4.0%	38%	0%
O=C(c1ccc(Br)o1)N1CCC(c2nc3ccccc3[nH]2)CC1	nt	0.4%	-2%	nt
CCOC(=O)c1cc2c(=O)n3ccccc3nc2n(Cc2ccco2)c1=NC(=O)c1ccccc1OCC	9	?	?	0%
Cc1ccc(C(C)C)cc1OCC(=O)Nc1ccc(N2CCCCC2)cc1	nt	?	-1%	nt
CCOc1cccc2sc(N(CCN(C)C)C(=O)c3ccc(Br)s3)nc12	5	0.0%	17%	-1%
CC(C)CCN(C(=S)Nc1cccc(C(F)(F)F)c1)C(C)c1ccccn1 (stereo not drawn)	-9	-0.6%	4%	-1%
